# GIRK2 act – activators of human GIRK2 potassium channels | G protein-activated inward rectifier potassium channel 2 (Homo sapiens), P48051 | HEK293-GIRK2 thallium flux, Thallos fluorescence | calls only for hits at 25 µM | actives 0.05% (n = 63,000);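 active = among the strongest 0.2% of first-round signals and kept after retests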;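 note: first round at about 10 µM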
# Target sequence (P48051 whole entry, looked up): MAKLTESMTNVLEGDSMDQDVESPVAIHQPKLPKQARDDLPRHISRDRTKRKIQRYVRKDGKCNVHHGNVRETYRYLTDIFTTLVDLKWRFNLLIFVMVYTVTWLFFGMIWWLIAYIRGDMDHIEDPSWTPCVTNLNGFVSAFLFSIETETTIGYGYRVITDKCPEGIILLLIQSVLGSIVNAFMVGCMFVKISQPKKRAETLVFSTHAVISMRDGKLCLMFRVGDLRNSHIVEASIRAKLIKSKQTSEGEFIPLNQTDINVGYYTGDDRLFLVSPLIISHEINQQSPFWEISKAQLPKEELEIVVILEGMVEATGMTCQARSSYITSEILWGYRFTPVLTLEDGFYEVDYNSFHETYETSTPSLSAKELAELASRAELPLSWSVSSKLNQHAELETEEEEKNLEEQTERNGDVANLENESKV
# Calls only; i = inactive.
SMILES,GIRK2 act
Cc1nc2c(-c3ccccc3)c(C)nn2c(N2CCOCC2)c1Cc1ccccc1,i
Cc1onc(-c2ccccc2Cl)c1C(=O)NCC(O)c1ccc2c(c1)CCO2 (configuration not stated),i
COc1c(O)cc2c(=O)c3c(O)cc(O)c(CC=C(C)C)c3oc2c1CC=C(C)C,i
Cc1cc(C)c2nc(C)cc(NC(=O)c3cccnc3)c2c1,i
O=C(O)CC1=C/C(=C\c2ccc(C(=O)O)cc2)c2ccc(F)cc21,i
O=S(=O)(NCCOc1ccc2c(c1)OCO2)c1ccc(OC(F)(F)F)cc1,i
Cc1nccn1-c1cc(N2CCN(S(=O)(=O)c3cccs3)CC2)ncn1,i
O=S(=O)(NC1CCN(c2nccs2)CC1)C1CC1,i
COc1ccc(OCc2ccc(-c3nc(C#N)c(NCCN4CCOCC4)o3)o2)cc1,i
O=C(Nc1nnc(C2CC(=O)N(c3ccccc3)C2)o1)c1ccccc1Cl (configuration not stated),i

# Part of the list above, with tabs:
Structure	GIRK2 act
Cc1onc(-c2ccccc2Cl)c1C(=O)NCC(O)c1ccc2c(c1)CCO2 (configuration not stated)	i
O=S(=O)(NC1CCN(c2nccs2)CC1)C1CC1	i
O=S(=O)(NCCOc1ccc2c(c1)OCO2)c1ccc(OC(F)(F)F)cc1	i
Cc1nc2c(-c3ccccc3)c(C)nn2c(N2CCOCC2)c1Cc1ccccc1	i
O=C(O)CC1=C/C(=C\c2ccc(C(=O)O)cc2)c2ccc(F)cc21	i

# Next part:
SMILES,GIRK2 act
COc1ccc(-c2ccc(SCc3nc(-c4ccc5c(c4)OCO5)no3)nn2)cc1OC,i
Cc1ccc(-n2ncc3c(=O)n(CC(=O)N4CCCC4)cnc32)cc1C,i
CNC(=O)CSc1nc2c(c(=O)n(Cc3ccc(C)cc3)c(=O)n2C)n1C,i
O=C(Cn1ncn2nc(-c3ccc(Cl)cc3)cc2c1=O)NCc1ccco1,i
O=C(CSC1=NNC2C3CC(c4ccccc4)NN3C=CN12)Nc1ccc(Br)cc1 (configuration not stated),i
COc1cc([N+](=O)[O-])ccc1NC(=O)Cc1ccc(F)cc1,i
O=C(c1ccccc1Br)N1CCC(Oc2ncccc2Cl)CC1,i
Cc1noc(C)c1C(=O)NCC#CCOc1ccccc1C(N)=O,i
O=C(CCn1ccc(=O)[nH]c1=O)N1CC(c2nc(-c3cccc(C(F)(F)F)c3)no2)C1,i
CCc1ccc(CNC(=O)c2cnn(-c3ncccc3-c3nc(C)no3)c2C)cc1,i
Cn1cnnc1SCCNC(=O)c1cnn2c1OCCC2,i
O=C(c1ccc2[nH]ccc2c1)N1CCC(Oc2ccccn2)CC1,i
Cc1nc(N2CCN(C(=O)C3CCCO3)CC2)cc(-n2cccn2)n1 (configuration not stated),i
CCCn1c(=O)c2c(nc3n2CCN3c2cc(OC)ccc2OC)n(C)c1=O,i
COC(=O)c1ccccc1NC(=O)Cn1nc2ccc(-c3ccccc3)nn2c1=O,i
Cc1cccc(NC(=O)COc2nc(C)nc3ccccc23)c1,i
COc1ccccc1NC(=O)N1CCC(CNC(=O)c2cc(C3CC3)on2)CC1,i
C#CCOCC1CCCN(C(=O)c2cc3ccccc3[nH]2)C1 (configuration not stated),i
CCOCC(=O)NCCC(O)c1ccc2c(c1)OCO2 (configuration not stated),i
Cc1ccc2c(NC(=O)CSc3nnnn3C)cccc2n1,i
CCCC(NC(=O)c1cc(C)cc(C)c1)C(=O)Nc1nc2ccccc2[nH]1 (configuration not stated),i
CCCCn1c(SCc2nc(-c3ccc(OC)cc3)oc2C)nc2ccccc2c1=O,i
COc1ccccc1-c1nnc(C2CCN(C(=O)c3ccc4c(c3)OCO4)CC2)s1,i
C/C=C(/C)C(=O)O[C@@H]1CCC2=CC(=O)C(=C(C)C)C[C@]2(C)[C@H]1C,i
Nc1c(C(=O)NCC2CCCO2)c2nc3ccccc3nc2n1/N=C\c1ccc(Cl)cc1 (configuration not stated),i
O=C(c1c(F)cccc1Cl)N1CCN(c2ncnc3c2nnn3-c2ccccc2)CC1,i
COc1ccc(C2CCN(C(=O)c3ccccc3C(F)(F)F)C2)cc1 (configuration not stated),i
O=C1Nc2ccc(F)cc2/C1=C/c1ccc[nH]1,i
CCOc1ccccc1-n1nnc(C(=O)Nc2ccc(C(=O)O)cc2)c1C,i
CCOC(=O)CN1CCC(COCc2ccc(C#N)cc2)CC1,i
COc1ccc(CC(=O)NCCOc2ccc3c(c2)OCO3)cc1OC,i
Cc1nn(C(C)(C)C)c(OC(=O)c2cccc(Cl)c2)c1S(=O)(=O)c1ccccc1,i
COc1cccc(COc2c[nH]c(C(=O)Nc3nc(C)cs3)cc2=O)c1,i
COc1ccc2nc(-c3ccc(OC)c(NC(=O)c4cc(Cl)ccc4OC)c3)cn2n1,i
CC(C)OCCCNc1nc2c(c(=O)n(Cc3ccccc3Cl)c(=O)n2C)n1C,i
CCN1CCN(Cc2cc(=O)oc3cc(C)c(Cl)c(C)c23)CC1,i
Cc1ccc(C)c(-c2csc(Nc3ccc(F)cn3)n2)c1,i
O=C(Nc1ccccc1)OC1CCCC(NC(=O)c2ccccc2Cl)C1 (configuration not stated),i
COC(=O)c1ccc(C(=O)NCCC(O)c2cc(C)oc2C)cc1 (configuration not stated),i
CC(C)NC(=O)Cn1c(-c2ccncc2)nc2ccccc21,i
CCOC(=O)c1ccccc1NC(=O)CSc1nnc(C)c2cnn(-c3ccc(F)cc3)c12,i
CC(=O)Nc1ccc2c(c1)CC(=O)N2C,i
O=C(Cc1cccc2ccccc12)NCC1CCN(C(=O)Oc2ccccc2)CC1,i
Cc1cc(C)n(-c2nc(CCNC(=O)CCn3ccc(=O)[nH]c3=O)cs2)n1,i
COc1cc(C(=O)N2CCCC(c3nnc(CC(C)(C)C)o3)C2)cc(OC)c1OC (configuration not stated),i
Cc1nn(C2CCS(=O)(=O)C2)c(C)c1N1CCN(C(=O)NCc2cccs2)CC1 (configuration not stated),i
COc1cccc(C(=O)NC2CC(=O)N(c3ccc(C)cc3)C2)c1OC (configuration not stated),i
Cc1ccc(N2CCN(S(=O)(=O)c3ccc(F)c(C)c3)CC2)cc1C,i
Cc1noc(C)c1S(=O)(=O)N1CCc2nc(NC(=O)C3CCCO3)sc2C1 (configuration not stated),i
Cc1cc2nn(CC(=O)Nc3ccc(F)c(F)c3)c(=O)n2c(Nc2ccc(C)c(F)c2)n1,i

# Exported with tabs: entries from further up
compound	GIRK2 act
Cc1cccc(NC(=O)COc2nc(C)nc3ccccc23)c1	i
COc1ccccc1NC(=O)N1CCC(CNC(=O)c2cc(C3CC3)on2)CC1	i
C#CCOCC1CCCN(C(=O)c2cc3ccccc3[nH]2)C1 (configuration not stated)	i
CCOCC(=O)NCCC(O)c1ccc2c(c1)OCO2 (configuration not stated)	i

# Further results
SMILES,GIRK2 act
CC(=O)NCCc1nc2ccccc2n1Cc1ccc(C(C)C)cc1,i
O=c1[nH]c2cc(-c3nc(-c4ccccc4)no3)ccc2c(=O)n1Cc1ccccc1F,i
O=C(Nc1nnc(-c2cccs2)o1)c1cnccn1,i
C#CCOCC1CCCN(C(=O)/C=C/c2ccco2)C1 (configuration not stated),i
O=C(C1=NN(Cc2cccc(Cl)c2)c2ccccc2S1(=O)=O)N1CCOCC1,i
COc1ccc(-c2c(C)oc3cc(OCC(=O)OCc4ccccc4)ccc3c2=O)cc1OC,i
O=C(NCc1ccc(F)cc1)NCC(O)c1ccc2c(c1)CCO2 (configuration not stated),i
O=C(NCc1ccccc1)NC12CC3CC(CC(C3)C1)C2,i
Cc1cccc(NC(=O)CCc2csc(NC(=O)c3ccc(=O)[nH]c3)n2)c1C,i
Cc1cc(C)n(-c2nc(CCNC(=O)CSCc3ccccc3)cs2)n1,i

# Three structures already listed, sorted by SMILES length, rising.
SMILES,GIRK2 act
Cc1ccc2c(NC(=O)CSc3nnnn3C)cccc2n1,i
Cc1ccc(N2CCN(S(=O)(=O)c3ccc(F)c(C)c3)CC2)cc1C,i
O=C(Nc1nnc(C2CC(=O)N(c3ccccc3)C2)o1)c1ccccc1Cl (configuration not stated),i

# Next section:
SMILES,GIRK2 act
O=S(=O)(c1ccc(Cl)cc1)N1CCCC(c2nnc(Cc3ccc(F)cc3)o2)C1 (configuration not stated),i
O=C(c1cccc(C(F)(F)F)c1)N1CCOCC1CO (configuration not stated),i
O=C(NCCc1ccccc1)Nc1ccc2c(c1)CCCN2C(=O)c1cccs1,i
Cc1cc(C)n(-c2cc(NC(=O)c3ccco3)ncn2)n1,i
Cn1c(=O)[nH]c(=O)c2c1nc(N1CCCC1)n2CCCn1c(N2CCCC2)nc2c1c(=O)[nH]c(=O)n2C,i
COc1ccc(C(O)=C2C(=O)C(=O)N(c3cc(C)on3)C2c2cccc(O)c2)cc1Cl (configuration not stated),i
C#Cc1ccc(/C=C2\C=C(CC(=O)NCc3ccccc3)c3cc(F)ccc32)cc1,i
Cc1nnc(SCC(=O)NCc2ccc3c(c2)OCO3)c2c1cnn2-c1ccc(F)cc1,i
CCOC(=O)c1sc(NC(=O)c2ccnn2C)c(C(=O)OCC)c1C,i
COc1cc(OC)cc(-c2nnc(NC(=O)NC(c3ccccc3)c3ccccc3)o2)c1,i
NS(=O)(=O)c1ccc(NC(=O)CSc2nc3c(c(=O)[nH]2)CCCC3)cc1,i
COc1ccc(CCNc2oc(-c3ccc(S(=O)(=O)N4CCCC4)cc3)nc2C#N)cc1,i
Cc1nnsc1C(=O)N1CCC(c2ccccc2)C1 (configuration not stated),i
CCN1CCN(CC(O)COc2ccc(Br)cc2Br)CC1 (configuration not stated),i
Cc1ccccc1OCC(=O)NCC1CCN(C(=O)Oc2ccccc2)CC1,i
COc1cccc(NC(=O)c2ccc(S(=O)(=O)N(C)C3CCCC3)cc2)c1,i
CCCCC[C@H](O)/C=C/[C@@H]1[C@@H](CCCCCCC(=O)O)[C@H](O)C[C@H]1O,i
O=C(CSCc1ccccc1)Nc1nnc(C2CC(=O)N(c3ccccc3)C2)o1 (configuration not stated),i
Cc1cccc(OCc2nnc3sc(-c4csc5c4CCCC5)nn23)c1,i
Cc1cc(NC(=O)C(=O)NCCCN2CCOCC2)c2ccccc2n1,i

# Four entries from above, with tabs:
Compound	GIRK2 act
Cc1nnsc1C(=O)N1CCC(c2ccccc2)C1 (configuration not stated)	i
CCN1CCN(CC(O)COc2ccc(Br)cc2Br)CC1 (configuration not stated)	i
Cc1ccccc1OCC(=O)NCC1CCN(C(=O)Oc2ccccc2)CC1	i
COc1cccc(NC(=O)c2ccc(S(=O)(=O)N(C)C3CCCC3)cc2)c1	i

# Later entries
SMILES,GIRK2 act
O=C(NCC(O)c1cccs1)NC12CC3CC(CC(C3)C1)C2 (configuration not stated),i
O=C(c1cccc(C(F)(F)F)c1)N1CCN(c2ccc(-n3ccnc3)nn2)CC1,i
COCCNC(=O)CN(C)c1nc2c(C(F)(F)F)cccc2s1,i
O=C(O)c1cc(NCc2cc(O)ccc2O)ccc1O,i
COc1ccc(/C=C/C(=O)N2CCN(c3cc(-n4cccn4)nc(C)n3)CC2)cc1OC,i
COC(=O)c1ccc(C(=O)NCC2CCN(C(=O)c3ccoc3)CC2)cc1,i
CCOC(=O)CCc1cc(Br)ccc1OC(F)F,i
COC(=O)C(C)Oc1ccc2c(=O)c(-c3ccc(Cl)cc3)c(C(F)(F)F)oc2c1 (configuration not stated),i
Cc1ccc(-n2ncc3c(=O)n(Cc4nc(-c5ccc(OC(C)C)cc5)no4)cnc32)cc1Cl,i
CCN(CC)C(=O)c1cnc2nc(C)ccc2c1Nc1ccc2c(c1)OCO2,i
O=C(CCCn1c(=O)c2ccccc2n(Cc2ccc(F)cc2)c1=O)NCc1ccc2c(c1)OCO2,i
CC1CCN(c2nccnc2Oc2ccc(C(=O)NCCc3cccs3)cc2)CC1,i
Cc1cc(C)c2oc(=O)cc(CN3CCCCC3C)c2c1 (configuration not stated),i
CC(C)(C)NS(=O)(=O)c1ccc(NC(=O)c2cccnc2)cc1,i
COC(=O)C1=C(C)N(C)C(=O)NC1c1ccc(OCc2ccccc2)cc1 (configuration not stated),i
Cc1ccc(Cl)cc1NC(=O)CN1CCN(S(=O)(=O)N2CCOCC2)CC1,i
O=C(Nn1cnc2c(cnn2-c2cccc(Cl)c2)c1=O)c1cccc(Cl)c1,i
Cc1cc(C(=O)NCc2sc(-c3ccccc3Cl)nc2C)c(C)o1,i
CCOC(=O)COC(=O)c1cn(-c2ccc(CC)cc2)c(=O)c2ccccc12,i
CN(C)S(=O)(=O)c1ccc(-c2nc(C#N)c(N3CCN(c4cccc(Cl)c4)CC3)o2)cc1,i
CN1CCc2c(sc(NC(=O)c3ccc(Br)cc3)c2-c2nc3ccccc3s2)C1,i
O=C(Nc1ccc(F)cc1)Nc1ccc2c(c1)CCC(=O)N2Cc1ccccc1,i
COc1ccc2c(COc3ccc4c(=O)c(-c5ccc6c(c5)OCCO6)coc4c3)cc(=O)oc2c1,i
COc1ccccc1NC(=O)c1ccc(-c2ccc(F)c(Cl)c2)o1,i
O=C(NCC1CCN(C(=O)c2ccoc2)CC1)C(=O)Nc1ccc(OC(F)(F)F)cc1,i
CCN(CC)C(=O)c1sc2nc(-c3ccco3)c3c(c2c1N)CCCC3,i
COc1ccccc1-c1noc(Cn2c(=O)n(-c3ccc(Cl)cc3)c(=O)c3sccc32)n1,i
COc1cccc(NC(=O)Cn2c(=O)nc(-c3ccccc3)c3cc(Cl)ccc32)c1,i
O=C(Cn1nc(-c2ccccc2)c2sc(N3CCCC3)nc2c1=O)NC1CCCCC1,i
COc1ccc(C(=O)N2CCN(C(=O)c3ccco3)CC2)nn1,i
COC(=O)c1ccc(CN2CCC(c3nn(C)c(=O)n3-c3ccccc3)CC2)cc1,i
C=CCN1C(=O)C2(SC(NC(C)=O)=NN2C(C)=O)c2ccccc21 (configuration not stated),i
O=C(CCCc1ccccc1)NCc1ccc(C(=O)c2cccs2)s1,i
Cc1ccc(-c2cnn3c(N4CCN(CC#N)CC4)cc(C(C)(C)C)nc23)cc1,i
Cc1ccc(S(=O)(=O)N2CCC(c3nc(-c4ccc(Br)cc4)no3)CC2)cc1C,i
CCCCn1c(=O)c2c(nc3n2CCCN3c2ccc(OC)cc2)n(C)c1=O,i
COc1ccccc1-c1noc(Cn2cnc3c(nnn3Cc3ccccc3)c2=O)n1,i
Cc1cc(C)n(-c2ccc(C(=O)Nc3ccccc3C(C)C)nn2)n1,i
CCOC(=O)/C=C/c1cccc(C(C)=O)c1,i

# Some of the compounds tested; count on the stated rates, not on these rows.
